Compound activity from PubChem.
Ecoli growth: E. coli growth inhibition, primary screen, OD600; hit rate 0.21% among 330,000; OD600 absorbance (test concentration not listed); Escherichia coli growth, 23 h; hits give low values; AID 1053175, 2014;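 active = OD600 absorbance below the run mean of sample wells minus 3.6 SD, in any replicate, cut at about 0.56 in these data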;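 note: stock transfer was 300 nL into about 60 µL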
A1 inh: caspase 3/7 activation in MEF A1-2A-BIM cells, primary screen, A1 inhibitor project, cell-based, luminescence, HTS; Caspase-Glo 3/7 luminescence, 3 h; percent of clofoctol response, vehicle zero; caspase activation, % (concentration not given with the values); hit rate 0.066% among 330,000; AID 2462, 2010;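 active = over half of replicate activation scores above 10%, or exactly half above 10 with the replicate mean above 10; inconclusive = replicate mean below 10 yet half the replicates above 10; inactive = over half of replicates below 10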;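 note: wells of about 30 µL received 50 nL stock; many hits fall short of the cut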
Vif TR-FRET: inhibitors of Vif binding to APOBEC3G peptide, primary screen, biochemical, TR-FRET, GST-Vif 1-94, biotin-A3G peptide, dose response retest (AID 1117319) | hit rate 0.57% among 260,000 | one-dose inhibition, %; IC50 in µM for titrated hits | TR-FRET GST-Vif / biotin-A3G peptide binding; higher % means a stronger effect; test concentration not given here; strong numbers were not always called active | Virion infectivity factor (Human immunodeficiency virus type 1 group M subtype B (isolate …;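 active = above the screen mean plus three standard deviations and confirmed in dose response; inconclusive = results disagree or hit not tested in dose response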;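 note: Vif residues 1-94 fused to GST binding biotinylated APOBEC3G peptide 110-148; 0% = full assay without inhibitor and 100% = GST in place of GST-Vif; retest series ran down from 100 µM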
HNF4A DNA FP: change in binding of human HNF4A to DNA, primary screen, biochemical, fluorescence polarization, FITC-DNA. Hepatocyte nuclear factor 4-alpha (Homo sapiens), P41235. 1 h. activity change, % at 10 µM. hit rate 0.3% among 360,000; in the data active = activity change above about 30%, passing the limit was not always enough;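 note: controls were the assay level and a saturating level of protein; the project sought stronger binding though the title names inhibitors; some compounds called inactive have numbers as strong as hits; positive values seem to mean higher polarization but the record does not say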
LANA-H2B inh: blockers of LANA interaction with H2A/H2B – biochemical, FP readout, HTS, primary screen; cell-free LANA-H2A/H2B peptide, fluorescence polarization; inhibition, % (no concentration beside the values); Protein LANA1 (Human herpesvirus 8 type P (isolate GK18)), Q9QR71; hit rate 0.6% among 320,000; in the data active = inhibition mostly above about 10%, no sharp cut-off; inactive = mostly below about 6.7%;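 note: stock transfer was 7.5 nL into about 10 µL; 0% = median of vehicle wells and 100% = median of positive control wells; one replicate is shown; the record names a cut of 25% in any replicate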
UCH37 DUB inh: inhibitors of human UCH37 deubiquitinase, primary screen, biochemical, Ub-AMC cleavage, fluorescence; hit rate 0.33% among 330,000; inhibition, % (test concentration not listed); purified proteasome/UCH37; AID 588478, 2011;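 active = mean of two replicates above 20%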;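 note: 0% = compound-free wells with enzyme and 100% = wells lacking proteasome; stock transfer was 100 nL into about 20 µL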
Target sequence (Q9Y5K5 whole entry, looked up): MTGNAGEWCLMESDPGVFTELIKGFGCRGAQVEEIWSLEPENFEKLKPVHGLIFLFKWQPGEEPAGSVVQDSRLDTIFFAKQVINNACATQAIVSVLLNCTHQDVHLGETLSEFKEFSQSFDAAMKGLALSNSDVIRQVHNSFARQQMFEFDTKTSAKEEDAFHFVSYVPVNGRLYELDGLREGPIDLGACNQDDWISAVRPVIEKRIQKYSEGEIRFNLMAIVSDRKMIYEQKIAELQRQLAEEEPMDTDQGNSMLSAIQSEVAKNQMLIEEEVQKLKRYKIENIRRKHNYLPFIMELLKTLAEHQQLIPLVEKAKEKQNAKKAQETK
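Signal – fluorescence, ex 355 nm, em 460 nm · System – Proteasome-bound UCH37 · Input – 0.15 nM proteasome as dispensed · Timing – 30 min preincubation with enzyme, 25 min cleavage at room temperature · Read-out basis – percent inhibition of cleavage signal versus uninhibited and no-proteasome wells · Medium – Tris-HCl pH 7.4 with ATP-MgCl2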
Beta2AR agonist: beta2AR agonists driving receptor internalization, primary screen, cell-based, FAP fluorogen, flow cytometry; Beta-2 adrenergic receptor (Homo sapiens), P07550; Am2.2-beta2AR cells; reference of the scale not given here; response, % (no concentration beside the values); hit rate 0.43% among 340,000;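 active = response above a set limit, near 3 SD of response in nonfluorescent compounds, cut at about 42% in these data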;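 note: stock transfer was 100 nL into about 11 µL; a reference agonist was the positive control; negative values mostly stem from fluorescent compounds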
Target sequence (P07550 whole entry, looked up): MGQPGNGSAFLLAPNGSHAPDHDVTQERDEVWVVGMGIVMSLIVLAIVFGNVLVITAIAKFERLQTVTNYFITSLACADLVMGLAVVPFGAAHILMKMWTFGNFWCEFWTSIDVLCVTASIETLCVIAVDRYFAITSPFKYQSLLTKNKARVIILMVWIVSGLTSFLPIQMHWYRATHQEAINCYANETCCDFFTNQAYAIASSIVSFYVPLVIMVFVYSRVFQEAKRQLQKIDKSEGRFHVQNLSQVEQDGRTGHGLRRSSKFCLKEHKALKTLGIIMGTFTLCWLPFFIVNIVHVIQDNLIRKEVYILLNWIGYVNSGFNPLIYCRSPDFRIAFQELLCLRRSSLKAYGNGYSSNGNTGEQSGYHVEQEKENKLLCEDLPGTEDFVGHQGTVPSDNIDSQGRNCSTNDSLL
Active calls of the source: *; ? = inconclusive; · = no result given; & = joins results of further samples. Not a hit list, and some 2.1% of all compounds hit somewhere here.

SMILES	Ecoli growth	A1 inh	Vif TR-FRET	HNF4A DNA FP	LANA-H2B inh	UCH37 DUB inh	Beta2AR agonist
CN(CCc1ccccc1)C(=O)c1ccc(NC(=O)Cc2ccc(NC(=O)C3CCN(C(=O)C4CC4)CC3)cc2)cc1	0.68	·	12%	-1.6	·	-1.9	-7
CCOC(=O)COn1c2c(c3c4no[n+]([O-])c4ccc31)CCCC2	0.74	-0.1	10%	-0.7	-3.6	2.3	19
COCCCNCC1C(Oc2ccc(Cl)cc2)C(=O)N1c1ccccc1C (stereo not drawn)	0.69	1.1	·	-0.3	-2.7	-26	-7
COc1ccc(CNC(=O)CN2CCN(c3ccccc3O)CC2)cc1OC	0.67	1.1	-13%	3.1	-0.8	3.3	0
CCOC(=O)c1nnn(-c2nonc2N)c1CN1CCc2ccccc2C1	0.7	2.2	-7%	1.1	-1.7	-0.5	-3
COc1ccc(-c2cc(C(F)(F)F)nc(SCC(=O)N(C)Cc3cn(C)nc3C)n2)cc1OC	·	0.5	-7%	3.8	2.9	·	-15
C/C(CC(=O)NCc1ccco1)=N\NC(=O)COc1ccc(Cl)cc1Cl	·	0.2	2%	-5.0	0.5	·	-20
COc1ccc(N=C2S/C(=C\c3ccc(OC(C)C(=O)O)c(OC)c3)C(=O)N2CCc2c[nH]c3ccccc23)cc1 (stereo not drawn)	0.64	·	17%	-2.9	·	6.1	3
Cc1nn(-c2ccccc2)c2c1/C(=N/O)CC(C)(C)C2	·	0.2	15%	3.4	4.5	·	5
O=[N+]([O-])c1ccccc1S(=O)(=O)Nc1ccc(-c2ccc(N3CCCC3)nn2)cc1	0.66	-0.4	-4%	1.8	·	6.6	16
Cc1noc(C)c1S(=O)(=O)Nc1cccc(C(F)(F)F)c1	0.68	0.3	-7%	5.9	-0.6	2.0	-3
CC(=Nc1ccccc1)C1=C(O)C(CC(C)C)NC1=O (stereo not drawn)	·	·	-1%	2.0	·	·	0
Cc1[nH]n(C(N)=S)c(=O)c1C(c1ccccc1)C(C#N)C#N (stereo not drawn)	0.76	0.4	12%	1.1	4.9	5.4	2
O=C(c1ccco1)N(Cc1cccc(Br)c1)C1CCS(=O)(=O)C1 (stereo not drawn)	0.61	0.9	-2%	-1.5	2.0	2.6	-7
O=C(Nc1ccc(F)cc1)c1oc2ccccc2c1NC(=O)C1CC1	0.66	-0.2	·	0.6	2.9	-2.5	-5
COc1ccc(CCc2nc(C)ccc2O)cc1	0.67&0.67	-1.6&-1.4	23%	-0.4&0.1	3.0&-2.1	-8.2&-1.0	2&-14
O=C(NCCC1CCCCN1S(=O)(=O)c1ccccc1)C(=O)NCc1cccnc1 (stereo not drawn)	0.69	0.1	4%	1.5	2.8	-2.0	5
COc1ccc([N+](=O)[O-])cc1NC(=O)C1CCCNC1=O (stereo not drawn)	0.63	-0.8	1%	0.0	-2.5	6.5	-14
CCCN(Cc1nc(-c2ccc(Cl)cc2)no1)CC1CCCO1 (stereo not drawn)	0.71	-0.7	·	1.9	-5.9	3.2	7
O=C(c1ccc(Cl)cc1)C1CCN(C(=S)Nc2ccccc2)CC1	0.62	·	·	-0.2	·	1.7	0
CNc1nc(-c2ccccc2)cc(C(F)(F)F)c1C#N	0.74	0.0	-2%	3.0	-11	-18	8
O=C(O)c1ccccc1NCc1cccnc1	0.62	-0.3	·	-8.2	-3.8	-18	0
CC1CN(S(=O)(=O)c2ccc(NC(=O)CCCN3C(=O)c4ccccc4C3=O)cc2)CC(C)O1 (stereo not drawn)	0.71	·	0%&1%	4.0	·	3.5	1
Cc1ccc(NC(=O)C2CCCC2)c(Br)c1	0.65	-0.1	·	-0.2	-1.7	3.7	-5
COc1ccccc1CN(C)C(=O)C1COc2ccccc2O1 (stereo not drawn)	0.73	0.1	6%	0.5	-2.6	0.8	2
Further compounds follow.
SMILES	Ecoli growth	A1 inh	Vif TR-FRET	HNF4A DNA FP	LANA-H2B inh	UCH37 DUB inh	Beta2AR agonist
COc1ccc2c(CC(=O)Nc3nnc(C4CC4)s3)coc2c1	0.73	0.2	-7%	5.6	1.5	-9.9	-7
CCc1nnc(NC(=O)CSc2nnc(COc3ccccc3C)o2)s1	0.76	0.2	0%	1.9	0.0	2.5	-4
CCOc1ccc(S(=O)(=O)NCC(=O)NC2CCCCC2)cc1	0.7	-0.5	-15%	3.1	-2.3	3.5	-2
COc1ccc(C)cc1NC(=S)N1CCN(c2ncccn2)CC1	0.71	?	7%	-1.7	-1.1	-0.4	6
COc1ccc(S(=O)(=O)N2Cc3ccccc3CC2C(=O)Nc2ccc3c(c2)OCO3)cc1 (stereo not drawn)	0.76	0.8	22%	4.4	-4.7	-1.0	3
CCSc1nnc([C@@H](NC(=O)OC(C)(C)C)C(C)C)o1	0.65	-0.2	6%	2.6	0.8	1.6	7
O=C(Cc1cccc(F)c1)N1CCCC(CO)(Cc2ccc(F)cc2F)C1 (stereo not drawn)	0.72	0.0	·	-0.8	0.2	2.1	3
S=C(Nc1ccccc1Cl)N(CCN1CCCCC1)Cc1ccco1	0.65	-0.3	·	-0.2	3.5	3.8	6
Cc1ccc(N2CCN(/N=C/c3cccs3)CC2)cc1	·	-0.2	17%	-3.9	-1.8	·	-3
C=CCNC(=O)c1c(Cl)cnn1-c1ccc(C)cc1	0.7	0.6	-7%	-0.6	-0.6	-2.3	3
O=C(CSc1nc(-c2ccccc2)c(-c2ccccc2)o1)N1CCOCC1	0.76	0.3	4%	-3.3	·	1.2	2
CCSc1nc2ccccc2c(=O)n1CCc1ccc(OC)c(OC)c1	·	0.0	17%	3.4	-0.9	·	-12
Nc1ccccc1OCCOCCOCCOc1ccccc1N	0.69	0.0	-6%	0.6	-6.1	0.5	4
O=C(CCCC(=O)OCC(=O)c1cccs1)Nc1ccc(Oc2ccccc2)cc1	0.79	1.0	-24%	-0.8	-0.3	3.1	-5
CC(=O)Nc1cc(Cl)ccc1OS(=O)(=O)c1ccc(C)cc1	0.67	-0.4	·	0.9	-7.3	1.1	-5
CCOC(=O)N1CCC(Nc2c(NCCCN(CC)CC)c(=O)c2=O)CC1	0.68	-0.6	0%	-1.9	-0.3	5.3	1
O=C1NC2(CCCCCC2)C(=O)N1Cc1cccc([N+](=O)[O-])c1	0.69	0.2	3%	-2.9	-3.1	1.1	-6
CCn1cc([N+](=O)[O-])c(C(=O)Nc2c(C)nn(Cc3cccc(F)c3)c2C)n1	0.65	-0.7	3%	0.0	-4.3	2.4	1
Cc1c(/C=N/NC(=O)CNc2ccccc2)c2ccccn2c1C(=O)c1ccncc1	·	0.1	12%	1.0	3.0	·	-1
CC(Sc1nc(=O)cc(N)n1CCc1ccccc1)C(=O)NCc1ccccc1 (stereo not drawn)	0.72	0.6	2%	3.7	1.9	1.2	-1
CCOC(=O)c1nnn(-c2nonc2N)c1CS(=O)(=O)c1ccccc1	0.7	0.1	-3%	-3.2	-4.0	1.4	19
COc1cccc2cc(C(=O)N3CCN(c4ncccn4)CC3)c(=O)oc12	0.7	0.3	10%	-1.7	-3.4	2.6	11
CCCCS(=O)(=O)NC1=NCN(CCO)CN1	0.7	1.3	-8%	-2.5	-1.2	3.9	-6
O=C(Cc1ccc(Cl)cc1)N/N=C/c1ccccc1	·	1.0	·	3.5	-0.2	·	7
CCOc1ccc(S(=O)(=O)N2CCOCC2)cc1NC(=O)c1ccccc1F	0.66	-0.1	·	7.8	-2.9	-5.0	8

Copied from the list.
In HNF4A DNA FP, COc1ccc(CNC(=O)CN2CCN(c3ccccc3O)CC2)cc1OC has the entry 3.1
In LANA-H2B inh, COc1ccc(CCc2nc(C)ccc2O)cc1 has the entry 3.0&-2.1
In Vif TR-FRET, Cc1nn(-c2ccccc2)c2c1/C(=N/O)CC(C)(C)C2 has the entry 15%
In Ecoli growth, COc1ccc(C)cc1NC(=S)N1CCN(c2ncccn2)CC1 has the entry 0.71

An excerpt from above, reduced to Vif TR-FRET and HNF4A DNA FP:
structure | Vif TR-FRET | HNF4A DNA FP
CCc1nnc(NC(=O)CSc2nnc(COc3ccccc3C)o2)s1 | 0% | 1.9
CCSc1nc2ccccc2c(=O)n1CCc1ccc(OC)c(OC)c1 | 17% | 3.4

Additional compounds follow.
SMILES	Ecoli growth	A1 inh	Vif TR-FRET	HNF4A DNA FP	LANA-H2B inh	UCH37 DUB inh	Beta2AR agonist
N/C(=N\OC(=O)COc1ccc([N+](=O)[O-])cc1)c1ccncc1	·	0.3	31%	-0.4	0.0	·	-2
O=C(CCC1CCN(C(=O)c2cccc(Cl)c2F)CC1)Nc1ccccc1	0.68	1.5	-1%	2.1	-1.6	3.8	-5
Cc1noc(C)c1S(=O)(=O)N(CC(=O)Nc1ccc2c(c1)OCCO2)c1ccc(C(C)C)cc1	0.77	1.0	-3%	3.5	-1.0	5.6	16
COc1ccc([C@@H]2CC=C(C(=O)O)[C@H](c3ccc(Br)cc3)N2S(=O)(=O)c2ccccc2C)cc1	0.68	·	·	-6.4	·	5.9	4
CCOC(=O)N1CCN(C(c2ccccc2)c2sc3nc(C)nn3c2O)CC1 (stereo not drawn)	0.7	-0.2	-10%	-2.4	6.3	1.3	-3
COCCNC(=O)CCCn1c(=O)c2cc(OC)c(OC)cc2n(CC(=O)NCCC2=CCCCC2)c1=O	0.72	0.5	3%	-6.8	1.0	-11	-2
Cc1ccc(-c2nnc(NC3CCCCC3)c3ccccc23)cc1S(=O)(=O)N1CCN(C)CC1	0.65	0.1	6%	1.1	-1.4	0.7	-4
CCc1ccc(CNC(=O)C2CCC(=O)N(CCc3ccc(Cl)cc3)C2)nc1 (stereo not drawn)	0.7	1.0	·	-0.1	1.4	-3.5	-3
CC(OC(=O)C12CC3CC(CC(O)(C3)C1)C2)C(N)=O (stereo not drawn)	0.68	2.9	-4%	3.3	0.3	2.2	-5
CC(C(=O)NCC1CCCO1)c1ccc([N+](=O)[O-])cc1 (stereo not drawn)	0.71	0.7	9%	-0.7	-7.4	0.4	-5
COC(=O)C1=C(Nc2ccccc2NC(=O)CCCC(=O)O)CSC1	0.7	-0.8	?	3.7	2.6	-0.1	7
COCCn1cnc2c1c(=O)n(Cc1c(F)cccc1Cl)c(=O)n2Cc1ccccc1	0.69	-1.0	·	-1.5	4.2	-1.2	1
COc1ccc(-c2ccc3c(c2)C2CC3CCN2C(=O)C(C)(C)C)cc1 (stereo not drawn)	0.68	·	-6%	-2.7	·	2.7	-6
CCN(CC(=O)Nc1ccc2c(c1)OCCO2)Cc1cc(=O)n2ccsc2n1	0.7	-0.2	-1%	-1.1	-1.9	3.7	4
c1ccc2c(c1)Oc1ccccc1S2	·	0.5	·	2.8	42*	·	2
O=C(CO/N=C/c1cccc([N+](=O)[O-])c1)NC1CCCCC1	·	-0.7	·	-4.7	-0.4	·	1
CCNC(=O)CC1SC(=Nc2ccc(C)cc2)N(CC)C1=O (stereo not drawn)	0.73	0.6	?	-2.9	0.8	4.8	-3
Cc1cc2c(cc(C(=O)N3CCC(C(=O)N4CCCC4)CC3)n2Cc2c(F)cccc2Cl)o1	0.73	0.7	7%	2.0	-5.8	5.0	26
CC1CC(C)CN(C2CCN(Cc3cccnc3)CC2)C1 (stereo not drawn)	0.76	0.6	-1%	-2.5	2.2	0.9	5
COc1ccc(OC)c(CCNC(=O)CN2C(=O)CCSc3ccccc32)c1	0.69	0.9	-5%	6.4	2.6	5.8	-6
Nc1ncc2[nH]c(N)nc2n1	0.67	·	0%	2.5	·	-6.9	-1
